ALR inh: inhibitors of human ALR sulfhydryl oxidase, primary screen, biochemical, H2O2 detection, HRP-luminol luminescence, single point; FAD-linked sulfhydryl oxidase ALR (Homo sapiens), P55789; purified ALR, DTT oxidation; inhibition, % (concentration not given with the values); 3.8% of 290,000 active; AID 485317, 2010;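 active means mean and each replicate at 75% or more; inconclusive means only one of the two met; inactive means neither met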;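 further: stock transfer was 7.5 nL into about 7.5 µL; 0% = neutral wells and 100% = wells with inactivated enzyme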
Target sequence (P55789 whole entry, looked up): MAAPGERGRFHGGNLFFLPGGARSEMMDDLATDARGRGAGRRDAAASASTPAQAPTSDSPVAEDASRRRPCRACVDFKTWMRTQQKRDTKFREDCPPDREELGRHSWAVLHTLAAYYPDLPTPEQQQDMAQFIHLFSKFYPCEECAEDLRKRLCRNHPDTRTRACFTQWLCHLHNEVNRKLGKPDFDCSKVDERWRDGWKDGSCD
RanGTP-Imp inh: inhibitors of RanGTP-importin-beta interaction, primary screen, biochemical, FRET, CFP-Ran, YFP-importin-beta, homogeneous; Ran GTPase (GTP-bound) - importin-beta complex; cell-free CFP-Ran/YFP-importin-beta FRET ratio; inhibition, % (test concentration not listed); 1.1% of 300,000 active; AID 2216, 2009;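 active means most replicates above 15%; inconclusive means exactly half above 15%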;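 further: 0% = DMSO wells and 100% = Ran loaded with GDP instead of GTP; wells of about 40 µL received 100 nL stock; the first replicate is given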
FGF22 binding: binders of human FGF22 protein, primary screen, FGF22 synaptogenesis inhibitor project, biophysical, thermal shift, single point. Fibroblast growth factor 22 (Homo sapiens), Q9HCT0. recombinant FGF22 thermal shift, SYPRO orange fluorescence; percent of sucrose octasulfate shift, DMSO zero. calls only at 9.99 µM. 1.5% of 340,000 active;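 active means melting point raised past a set limit in the mean and every replicate; inconclusive means no clear call; three in four hits are not shown here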
Target sequence (Q9HCT0 whole entry, looked up): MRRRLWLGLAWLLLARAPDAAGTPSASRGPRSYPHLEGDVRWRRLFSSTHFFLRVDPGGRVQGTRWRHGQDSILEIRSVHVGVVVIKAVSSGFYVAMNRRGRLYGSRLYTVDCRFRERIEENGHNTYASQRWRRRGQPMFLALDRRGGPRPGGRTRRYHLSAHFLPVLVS
rRNA inh HTS: reduced GFP signal of wild-type E. coli, primary screen, bacterial rRNA inhibitor project, GFP/RFP fluorescence, OD600, single point. E. coli WT GFP vs humanized-ribosome RFP mutants, 24 h; active compounds read low; DMSO median 0, no signal -100. GFP signal change (wild-type ribosome), % (concentration not given with the values). 1.6% of 350,000 active;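 active means significant combined selectivity score with lowered wild-type GFP, culture density cut under 30%, mutant RFP and density less affected; inactive means any of these conditions unmet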; further: one replicate is shown; some compounds called inactive have numbers as strong as hits
T cruzi repl: inhibitors of intracellular T. cruzi growth, primary screen, luminescence, NIH3T3 host cells; T. cruzi beta-gal in NIH3T3, 90 h; inhibition, % (test concentration not listed); 1.4% of 300,000 active; AID 1885, 2009;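 active means mean inhibition across valid replicates above about 55%, limit read from the data; inconclusive means mean below that limit but half or more replicates reach it; inactive means mean below it, under half of replicates reach it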;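 further: signal also drops with host cell toxicity which is not excluded here; 0% = plate median of DMSO wells and 100% = zero luminescence signal; higher percent means less beta-gal luminescence so fewer parasites; stock transfer was 50 nL into about 50 µL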
MLL AF4-AF9 inh: inhibitors of AF4 peptide binding to AF9, primary screen, biochemical, AlphaScreen, biotin-AF4 peptide, FLAG-AF9, single point; inhibition, % at 10 µM; 0.47% of 350,000 active; AID 651704, 2012;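 active means every replicate reaching a set inhibition limit, whatever the replicate mean, cut at about 25% in these data; inconclusive means mean inhibition reaches that limit but some replicates miss it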;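 further: 0% = plate neutral control median and 100% = total signal loss; the record names both 10 and 1 µM as test concentration; the first replicate is given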
Target sequence (P42568 whole entry, looked up): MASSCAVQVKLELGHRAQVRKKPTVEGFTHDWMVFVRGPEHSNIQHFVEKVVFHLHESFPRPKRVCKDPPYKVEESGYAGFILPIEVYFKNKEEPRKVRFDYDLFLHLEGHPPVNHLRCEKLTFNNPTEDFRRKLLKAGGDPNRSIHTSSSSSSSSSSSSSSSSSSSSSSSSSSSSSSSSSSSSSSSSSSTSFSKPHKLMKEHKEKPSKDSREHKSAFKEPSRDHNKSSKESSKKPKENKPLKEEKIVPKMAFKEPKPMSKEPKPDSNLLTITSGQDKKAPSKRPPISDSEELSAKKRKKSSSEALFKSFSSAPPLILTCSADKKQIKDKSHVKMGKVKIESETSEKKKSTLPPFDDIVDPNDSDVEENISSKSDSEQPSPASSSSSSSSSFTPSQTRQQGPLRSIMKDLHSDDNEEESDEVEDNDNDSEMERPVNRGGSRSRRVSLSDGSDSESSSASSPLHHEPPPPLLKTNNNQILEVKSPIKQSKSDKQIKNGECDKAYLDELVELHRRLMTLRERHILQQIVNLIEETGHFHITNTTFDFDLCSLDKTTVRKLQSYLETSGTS
Calb FLC: C. albicans growth inhibition with fluconazole, primary screen, CaCi-2 strain, Alamar Blue fluorescence; C. albicans CaCi-2 (fluconazole-resistant clinical isolate) + fluconazole, 48 h; growth inhibition, % (test concentration not listed); 0.57% of 300,000 active;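 active means most replicates above 75%; inconclusive means exactly half above 75%; inactive means most below 75%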;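 further: all wells also contain fluconazole at 8 µg/ml as a sub-toxic cotreatment; 0% = median of DMSO wells and 100% = median of geldanamycin control wells; wells of about 8 µL received 7.5 nL stock; the first replicate is given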
Beta cell apopt: inhibitors of cytokine-induced beta cell apoptosis, primary screen, luminescence | INS-1E cytokine-induced death, ATP luminescence, 48 h; percent of positive-control rescue, neutral wells zero | 0.8% of 300,000 active | AID 435005, 2010 | protection from apoptosis, % (concentration not given with the values);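 active means all replicates at 75% or more, or half of them and the mean; inconclusive means half reach 75% but not the mean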;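 further: 0% = cytokine-treated negative control wells and 100% = positive control rescue; higher means more ATP so stronger rescue from cytokine killing; wells of about 40 µL received 100 nL stock; the first replicate is given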
rRNA inh HTS OD600: further read-out of rRNA inh HTS, marked with its call; OD600 change, %; measured here: OD600 growth;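 optical density of the mix in the first replicate; 0 = DMSO median and -100 = no signal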
rRNA inh HTS RFP: second read-out of rRNA inh HTS, no call of its own (marks repeat the call); RFP signal change, %; measured here: RFP humanized mutant strains;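 first replicate; 0 = DMSO median and -100 = no signal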
An asterisk follows results filed as active; i = inactive; u = inconclusive; x = not tested or not shown.

cpd	SMILES	ALR inh	RanGTP-Imp inh	FGF22 binding	rRNA inh HTS	rRNA inh HTS OD600	rRNA inh HTS RFP	T cruzi repl	MLL AF4-AF9 inh	Calb FLC	Beta cell apopt
1	COc1ccc(C(C)=O)cc1COc1nc(C)nc2ccccc12	7	-4.0	i	-4	-4	2.4	4	-9.4	-4	-3
2	CC1CCN(S(=O)(=O)c2ccc(NC(=O)C3CC3)cc2)CC1	-2	-4.5	i	-1	-8	-0.3	-3	1.1	-17	0
3	O=C(CSc1nnc(-c2cccs2)n1Cc1ccccc1)NCc1ccc2c(c1)OCO2	-9	-0.9	x	x	x	x	19	x	-15	0
4	Cn1c(=O)oc2cc(S(=O)(=O)N3CCCC3)ccc21	-6	5.8	i	-1	8	-4.5	0	5.4	1	-1
5	O=C(O)Cn1ncn(-c2ccc(OC(F)(F)F)cc2)c1=O	0	-0.7	i	11	4	-11	-19	-3.5	-3	0
6	O=S(=O)(Nc1nc(CN2CCOCC2)nc2sc3c(c12)CCCC3)c1cc(F)ccc1F	-16	2.0	x	x	x	x	-1	x	u	-4
7	CCCOC(=O)c1ccc(NC(=O)C(CC)CC)cc1	x	-1.8	x	x	x	x	9	x	-11	-1
8	Brc1ccc(-c2nnc(-c3ccccc3)c(N3CCSCC3)n2)cc1	19	-1.1	x	x	x	x	26	x	-8	2
9	COc1cc(/C=C/C(=O)OCC(=O)NC(=O)NC(C)(C)C)ccc1O	99*	5.8	i	0	-2	-1.2	10	6.1	-3	-4
10	CCOC(=O)NC(=O)C(=CNc1ccccc1C)C(=O)NC(=O)OCC	0	1.5	x	8	5	-0.3	-14	-2.2	-10	-16
11	Cc1ccc(NC(=O)Cn2nnc(C(=O)NCc3cccs3)c2N)cc1F	-13	3.9	i	3	8	-1.9	-2	-0.5	-9	-8
12	CC(NC(=O)CC(O)(C(F)(F)F)C(F)(F)F)c1ccccc1 (stereo not given)	2	8.4	i	-2	6	-1.9	-10	-8.6	-9	4

Next results.
cpd	SMILES	ALR inh	RanGTP-Imp inh	FGF22 binding	rRNA inh HTS	rRNA inh HTS OD600	rRNA inh HTS RFP	T cruzi repl	MLL AF4-AF9 inh	Calb FLC	Beta cell apopt
13	CCCC(=O)c1ccc(N2CCN(C(=O)c3cccs3)CC2)c(F)c1	-6	-4.7	i	-32	-34	-6.4	-1	0.3	-4	-1
14	Cn1cc(-c2ccccc2)cc(C#N)c1=O	-38	9.6	i	7	7	1.7	-3	-5.8	19	-2
15	O=C(/C=C/c1ccc(F)cc1)NC(=S)NNC(=O)[C@H]1C[C@@H]1c1ccccc1	-5	3.2	i	4	-1	-1.0	-42	-3.8	x	7
16	Cc1ccccc1-c1cc(C(=O)O)nn1CC1CC(c2cccc([N+](=O)[O-])c2)=NO1 (stereo not given)	1	x	i	-8	-3	-8.7	x	-9.0	x	-3
17	NC(=O)c1c(-c2ccccc2)oc2ccc(O)cc12	1	6.4	x	x	x	x	-26	1.5	-20	3
18	COc1cccc2cc(C(C)=O)c(=O)oc12	-3	-2.3	x	x	x	x	-3	x	20	-5
19	Cc1ccccc1-n1cnnc1SCC(=O)Nc1cccnc1Cl	x	2.7	i	3	9	0.2	-5	-0.9	11	-2
20	COc1ccc(Cl)cc1C(=O)NCc1cn(C)nc1C	2	-0.2	x	x	x	x	14	x	x	-5
21	COc1ccc(C(C)=O)cc1COc1ccc(Cl)c(C)c1	x	1.3	i	-21*	2.6*	1.7*	15	x	-2	-5
22	CCn1cc(C(=O)Nc2ccc(NC(=O)c3ccco3)cc2)c(=O)c2ccc(C)nc21	-2	-4.1	i	-42	-52	-9.9	0	-2.2	-17	0
23	COc1ccc(CCN(C)C2CCCN(C(=O)Cn3cccn3)C2)cc1OC (stereo not given)	-41	u	i	9	15	2.7	3	1.4	6	0
24	COc1ccccc1OC(=O)Cc1cccc2ccccc12	-3	-2.4	x	x	x	x	4	x	-1	-6

More records follow:
cpd	SMILES	ALR inh	RanGTP-Imp inh	FGF22 binding	rRNA inh HTS	rRNA inh HTS OD600	rRNA inh HTS RFP	T cruzi repl	MLL AF4-AF9 inh	Calb FLC	Beta cell apopt
25	COc1ccc2c(c1)CCN1C2CCN2C(=O)CCC21 (stereo not given)	-11	u	i	5	-7	-0.4	-7	-3.2	2	-3
26	Clc1ccc(-c2nc3cc(CN4CCCCC4)ccc3o2)cc1	-6	u	i	12	17	-0.4	22	4.6	-1	-5
27	Clc1nccc(N2CCN(c3ccccc3Cl)CC2)n1	3	0.8	i	-25*	-17*	-2.5*	15	-0.1	-4	x
28	O=C(NC1CCCCCC1)c1cc2c(=O)n3ccccc3nc2s1	x	u	i	5	3	-0.4	9	1.8	12	11
29	O=C1C=CC(=O)N1c1cccc(-c2ccccc2)c1	x	-1.8	i	1	12	-0.9	-15	-3.2	4	1
30	Cc1nc2c(-c3ccc(F)cc3)cnn2c(N)c1-c1ccccc1	-3	u	i	-12	-42	-2.0	44	-5.2	-6	4
31	COc1ccc(N(CC(=O)NC2CC3CCC2C3)S(=O)(=O)c2ccc(C)cc2)cc1 (stereo not given)	-3	x	i	-3	1	5.9	14	1.0	x	8
32	O=C(NCC(NS(=O)(=O)OCC(Cl)(Cl)Cl)c1ccccc1)C(F)(F)F (stereo not given)	3	u	i	6	11	0.9	-9	-4.2	-7	-3
33	COC(=O)c1cc(OC)c(OC)cc1NC(=O)CCCCCN1C(=O)CCC1=O	-4	5.5	x	x	x	x	5	x	-6	x
34	CC(C)CC(c1nnnn1C(C)(C)C)N1CCN(C2CCCC2)CC1 (stereo not given)	14	3.0	x	x	x	x	5	x	-6	-2
35	CCc1nc2cccnc2n1-c1ccc(CC(=O)NCCOC)cc1	x	0.9	i	-2	-3	-2.0	-11	0.6	-8	-8
36	CSc1ccc(CC(=O)N2CCC(n3nccc3NC(=O)C3CC3)CC2)cc1	-10	u	i	6	7	-1.6	-6	-22	3	-1

Following part.
cpd	SMILES	ALR inh	RanGTP-Imp inh	FGF22 binding	rRNA inh HTS	rRNA inh HTS OD600	rRNA inh HTS RFP	T cruzi repl	MLL AF4-AF9 inh	Calb FLC	Beta cell apopt
37	O=C(CSc1nnnn1-c1ccccc1)NCC1(N2CCOCC2)CCCCC1	3	x	i	2	5	5.6	x	-0.5	x	-5
38	Cc1cc(C)nc(SCc2ccc(C(=O)N/N=C/c3cccc(O)c3O)cc2)n1	x	1.3	x	x	x	x	34	x	-1	95*
39	O=C1C(Cl)=C(N2CCN(c3ccccc3[N+](=O)[O-])CC2)C(=O)c2ccccc21	-15	-1.7	i	-13	-49	-7.3	0	u	10	14
40	CC(=O)Nc1ccc(C(=O)CSc2nnnn2C(C)C)cc1	34	-5.0	x	x	x	x	-7	x	20	1
41	Cc1ccc(SCc2[nH]nc3c2C(c2ccc(C)o2)C(C#N)=C(N)O3)cc1 (stereo not given)	12	x	i	-37*	-16*	-2.5*	-8	-3.5	15	-15
42	CCn1nc(NC(=O)C2CCCO2)c2cc3cccc(C)c3nc21 (stereo not given)	x	58*	i	x	x	x	5	-26	-3	0
43	CN(C)c1nc(N)nc(CSc2n[nH]c(-c3ccccc3)n2)n1	2	2.9	x	x	x	x	11	x	-3	-2
44	CCCCn1c(N)c(N(Cc2ccccc2OC)C(=O)c2cc(CC)c(C)s2)c(=O)[nH]c1=O	0	x	i	2	-10	2.4	x	0.6	x	0
45	Cc1ccccc1Cn1nc(C)c(NC(=O)c2sc3ccccc3c2Cl)c1C	-8	0.2	x	x	x	x	0	x	7	-4
46	O=C(NCc1cccnc1)C12CC3CC(CC(C3)C1)C2	-5	u	i	11	12	-0.7	-12	1.0	-7	-7
47	O=C(c1ccccc1Oc1ccccc1)N1CCN(c2ccc(F)cc2)CC1	12	-3.2	x	x	x	x	4	x	-22	-4
48	COCCCNC(=O)CCn1c(=O)c2ccccc2n(CC(=O)Nc2cc(Cl)ccc2C)c1=O	1	0.1	x	x	x	x	x	x	1	0

Next section.
cpd	SMILES	ALR inh	RanGTP-Imp inh	FGF22 binding	rRNA inh HTS	rRNA inh HTS OD600	rRNA inh HTS RFP	T cruzi repl	MLL AF4-AF9 inh	Calb FLC	Beta cell apopt
49	CCNc1nc(NCC)nc(N/N=C/c2ccc(OC)cc2)n1	2	5.3	i	10	5	2.6	1	1.0	8	-18
50	CCOc1ccc(/C=C/c2c([N+](=O)[O-])c(=O)n(C)c(=O)n2C)cc1	u	3.0	i	5	-4	-5.1	-4	0.4	-10	1
51	COc1ccc(NC(=O)Cn2nnc(C(=O)NCc3ccccc3)c2N)cc1Cl	x	-6.0	x	x	x	x	-13	x	7	5
52	CCN(CC)S(=O)(=O)c1ccc2[nH]c(=O)cc(C(=O)NCc3ccccc3)c2c1	-1	-1.1	i	7	14	-1.2	-6	1.8	4	-4
53	COC(=O)c1cc(NCc2ccccc2F)ccc1N1CCOCC1	99*	x	x	x	x	x	-6	x	5	8
54	CC1CCN(c2ccc(C(=O)Nc3nnc(C4CC4)s3)cc2[N+](=O)[O-])CC1	x	u	i	2	12	2.3	36	-1.4	0	3
55	COC(=O)COc1ccc(/C=N/NC(=O)CN(c2ccccc2OC)S(=O)(=O)c2ccccc2)cc1	-16	-1.9	i	3	9	3.2	-14	1.0	6	-3
56	Cc1cc(C)n(-c2ccc([N+](=O)[O-])cc2)n1	x	1.2	i	6	6	-3.3	-15	-1.0	16	1
57	O=C(Oc1ccc(Cl)c2cccnc12)c1cccc([N+](=O)[O-])c1	x	2.5	i	9	10	-0.4	-3	2.3	85*	2
58	CSc1ccc(C(=O)C2CCCN(C(=O)c3cc4cc(F)ccc4[nH]3)C2)cc1 (stereo not given)	4	-1.0	x	8	5	1.2	14	-0.1	5	-10
59	C=CCOc1cccc(C(=O)N2CCCC(CNS(=O)(=O)c3cccs3)C2)c1 (stereo not given)	-4	5.1	i	2	-4	-7.1	-14	-1.5	4	-4

An excerpt (hit frequency here may not be typical).
